TRPV1 potentiator: human TRPV1 potentiation; potentiation, % at 8.33 µM; Q8NER1; hit rate 0.02% among 320,000; TRPV1-expressing cells, Fluo-8 calcium influx, capsaicin EC20 potentiation; host cell line not named in the record; control for the full effect not named in the record; active means potentiation above 80%; inconclusive means 30% to 80%; inactive means below 30%; further: 0% is about no effect
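TRPV1-expressing cells were cultured overnight at 35.5C and loaded with Fluo-8 calcium dye for 40 to 90 min at room temperature. After a 10 s baseline, compound was added and calcium influx was read kinetically for 3 min (ex 480/em 520 nm).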
TRPML1 blocker: blocks the human TRPML1 channel | Q9GZU1 | TRPML1-inducible cells, Ca2+ dye fluorescence, FDSS; stronger effect = lower value; inhibition of EC80 agonist-evoked calcium signal | activity change, negative = inhibition, % (concentration not given with the values) | hit rate 0.02% among 390,000; in the data active means activity change below about -50%; inconclusive means about -30% to -50%; inactive means above about -30%;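 further: stimulus is agonist 54-4 at its EC80 concentration; on the % scale 0 is the no-effect control and ±100 the full control effect; compound concentration not given in the record; the text of the record puts the active cut at -80%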
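Calcium fluorescence in TRPML1-DL cells induced overnight with Tet: a 110 s read after compound pin addition, then a 110 s antagonist read after challenge with 54-4 at 4 uM final (EC80).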
CtBP-E1A inh: inhibitors of CtBP/E1A interaction; AlphaScreen GST-E1A/His-CtBP binding, 1536-well; stronger effect = lower value; control for the full effect not named in the record; AID 651724; activity change, % (test concentration not listed); hit rate 0.49% among 340,000; in the data active means activity change below about -65%; inconclusive means about -30% to -65%; inactive means above about -30%; further: on the % scale 0 is the no-effect control and ±100 the full control effect; compound concentration not given in the record
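Homogeneous bead-based format: GST-tagged E1A captured on glutathione donor beads, His-tagged CtBP on nickel acceptor beads; compounds precede bead addition by 2 h at 37 °C.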
Six1-Eya2 blk: Six1/Eya2 interaction inhibition | Q15475+O00167 | AlphaScreen GST-Six1/His-Eya2 binding, biochemical; stronger effect = lower value; control for the full effect not named in the record | hit rate 0.56% among 360,000 | activity change, % (test concentration not listed); in the data active = activity change below about -65%; inconclusive = about -30% to -65%; inactive = above about -30%; further: on the % scale 0 is the no-effect control and ±100 the full control effect; compound concentration not given in the record
Target sequence (O00167 whole entry, looked up): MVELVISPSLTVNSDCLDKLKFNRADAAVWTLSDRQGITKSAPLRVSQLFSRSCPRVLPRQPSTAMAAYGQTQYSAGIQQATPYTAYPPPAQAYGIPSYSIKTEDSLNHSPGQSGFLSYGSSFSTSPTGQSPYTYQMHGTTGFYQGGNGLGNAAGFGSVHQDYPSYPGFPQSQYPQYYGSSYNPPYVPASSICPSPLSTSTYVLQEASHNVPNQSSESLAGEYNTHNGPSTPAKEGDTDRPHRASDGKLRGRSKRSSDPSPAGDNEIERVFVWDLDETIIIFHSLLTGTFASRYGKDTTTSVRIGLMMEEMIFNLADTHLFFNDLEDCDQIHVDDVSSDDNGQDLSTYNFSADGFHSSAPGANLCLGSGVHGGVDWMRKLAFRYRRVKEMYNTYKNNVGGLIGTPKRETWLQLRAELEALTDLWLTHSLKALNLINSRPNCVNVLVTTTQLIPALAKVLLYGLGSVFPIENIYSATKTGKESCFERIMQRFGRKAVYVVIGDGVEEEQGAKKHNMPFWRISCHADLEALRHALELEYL
Target sequence (Q15475 whole entry, looked up): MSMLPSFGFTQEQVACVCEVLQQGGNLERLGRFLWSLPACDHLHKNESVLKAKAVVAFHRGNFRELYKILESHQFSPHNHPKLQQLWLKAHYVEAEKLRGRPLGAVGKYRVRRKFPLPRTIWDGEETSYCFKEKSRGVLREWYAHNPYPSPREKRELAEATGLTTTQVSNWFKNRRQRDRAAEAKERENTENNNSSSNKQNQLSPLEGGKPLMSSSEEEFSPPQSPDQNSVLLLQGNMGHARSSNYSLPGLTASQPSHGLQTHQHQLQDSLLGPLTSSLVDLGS
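AlphaScreen luminescence read after one hour at 37 °C in darkness. Pin-transferred compounds met GST-Six1 and His-Eya2 protein (5X stock 250 nM/500 nM) plus glutathione donor and Ni-chelate acceptor beads (5X, 50 ug/mL).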
D2 PAM: human D2 receptor positive allosteric modulation | P14416 | DiscoveRx D2 beta-arrestin cells, luminescence, 90 min; 100% = 57 uM dopamine signal | potentiation, % (concentration not given with the values) | hit rate 0.23% among 360,000; active = potentiation of 50% or more; inconclusive = 30% to 50%; inactive = 30% or less;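 further: compound concentration not given in the record; tested on top of an EC20 dose of dopamine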
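PathHunter beta-arrestin assay in DiscoveRx D2 cells. Compounds were added with an EC20 of dopamine (50 nM final) for 90 min at 37 deg C. Luminescence was read 1 h after detection reagent, with 57 uM dopamine as the EC100 control.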
TRPML1 agonist: activates the human TRPML1 channel | activation, % (test concentration not listed) | TRPML1-expressing cells, Ca2+ dye fluorescence, FDSS; host cell line not named in the record; reference of the full effect not given here | hit rate 0.12% among 410,000 | AID 624414 | Q9GZU1; in the data active = activation above about 50%; inconclusive = about 30% to 50%; inactive = below about 30%; further: 0% is about no effect; the text of the record puts the active cut at 80%
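Kinetic FDSS Ca2+ read in Tet-induced TRPML1-DL cells (ABD Ca8 dye plus quencher, 45-90 min RT loading): baseline, then compound, then 110 s agonist window; EC80 agonist 54-4 at 4uM final added afterwards for a 110 s antagonist window.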
Active calls of the source: *; ? = inconclusive; / = no result given; & = joins results of further samples.

Structure | TRPV1 potentiator | TRPML1 blocker | D2 PAM | TRPML1 agonist | Six1-Eya2 blk | CtBP-E1A inh
O=C(NC1CCCCC1)C(c1ccncc1)N(C(=O)c1ccco1)c1ccc(F)cc1 (configuration not stated) | -8 | 7 | -4 | -0.4 | -5 | 6
CCc1ccc2nc(N3C(=O)C(O)=C(C(=O)c4ccco4)C3c3cccs3)sc2c1 (configuration not stated) | -10 | -9 | -18 | 1.9 | ? | 3
CN1CCN(c2ccc(NC(=O)CSc3ccccc3)cc2F)CC1 | -2 | 7 | -8 | 0.9 | -2 | 7
Cc1cc2ccccc2n1CCNC(=O)c1ccccc1 | 3 | 0 | 0 | -0.1 | -18 | -22
CCN(CC)CC(C)OC(=O)c1ccccc1Cl (configuration not stated) | 4 | -12 | -6 | -0.8 | 22 | -14
COc1ccc(S(=O)(=O)N2CCCC(C(=O)NCc3ccco3)C2)cc1Cl (configuration not stated) | -9 | 32 | -12 | -0.3 | -3 | 6
Cc1cc(C)c(S(=O)(=O)/N=C2/C=C(Sc3ncn[nH]3)C(=O)c3ccccc32)cc1C | 8 | 39 | 10 | 1.5 | 1 | -30
Cc1ccnc(N2CCC(C(=O)NCc3ccccc3F)CC2)n1 | -6 | 9 | -2 | 0.8 | -5 | 0
COc1ccccc1C(=O)NC(=S)Nc1ccc2[nH]c(=O)[nH]c2c1 | 6 | 27 | -1 | 0.4 | -3 | 8
COc1cccc(NC(=O)Nc2cccn(Cc3ccc(C)cc3)c2=O)c1 | -1 | -6 | -10 | 1.2 | -14 | /
CC1(O)CC(c2ccc(Cl)cc2)=NN1C(=O)c1ccc(Cl)cc1 (configuration not stated) | -5 | -5 | -48 | 0.2 | 31 | /
Cc1ccc([C@H]2C(C(=O)O)=CC[C@@H](c3ccc(C)cc3)N2S(=O)(=O)c2ccccc2C)cc1 | / | -7 | / | -0.5 | -7 | 3
CCOC(=O)[C@]12CCC=C1N(Cc1ccc(Cl)cc1Cl)C(=O)[C@H](CC(=O)NCCC(C)C)C2 | / | / | / | -0.4 | -5 | 8
Cc1cc(C)c(C2=CC(=O)C[C@H](c3ccc4c(c3)OCO4)C2)c(C)c1 | 6 | -3 | -4 | -0.1 | -8 | -3
COc1cc(-c2nc(CN3CCN(c4ncccn4)CC3)c(C)o2)ccc1F | 4 | 11 | -5 | 0.3 | -4 | -8
NC(CO)c1csc(NC(=O)Nc2cccc(Cl)c2)n1 (configuration not stated) | / | / | -6 | -0.4 | ? | ?
Cc1ccccc1N1CCN(CCCN2C(=O)CC(=C(c3ccccc3)c3ccccc3)C2=O)CC1 | 2 | -1 | -13 | 2.3 | -9 | -18
CCOC(=O)C1CCN(C(=O)c2ccccc2Oc2ccccc2)CC1 | -9 | 21 | -10 | -0.6 | 4 | 0
COc1ccc(/C=C2\CCc3ccccc3C2=O)cc1CN1CCOCC1 | -5 | 30 | -5 | 1.9 | -8 | ?
CCOC(=O)NC(=O)CSc1nc(-c2ccc(C)c(C)c2)cn1-c1ccccc1 | -14 | 11 | 15 | 1.1 | -23 | -13
O=C(c1ccc(Cl)cc1)C(Cn1cncn1)C(Sc1ccccc1)c1ccccc1 (configuration not stated) | -4 | -2 | -17 | -0.7 | 1 | -1
COc1ccc(-c2nnc(-c3cccnc3)o2)cc1OC | -4 | 4 | 1 | 1.3 | 11 | 28
C=CCOn1c(C)c(C(C)=O)c2c3no[n+]([O-])c3ccc21 | 1 | -1 | 5 | 0.4 | 6 | 2
Cc1cccc(Cl)c1NC(=S)NCCc1ccccn1 | 1 | 3 | -7 | -0.3 | -3 | -1
O=C(Cc1ccc(-c2ccccc2)cc1)OCC(=O)N1CCCC1=O | -3 | 42 | -1 | 1.0 | -2 | -1
CCOC(=O)c1cc2occc2n1CC(=O)Nc1ccc(OC)cc1OC | -16 | 13 | -5 | -0.2 | -8 | -6
CC(C)Nc1nnc(SCC(=O)c2c[nH]c3ccccc23)s1 | ? | -2 | 6 | -1.2 | 5 | 2
O=C(CSc1ccc2nnc(CCNC(=O)c3ccc(F)cc3)n2n1)NCc1ccco1 | 10 | 12 | -7 | -0.1 | 7 | -6
O=C(c1ccc(COc2ccc(F)cc2)o1)n1cc(Br)cn1 | 2 | -1 | -1 | -0.8 | 17 | 41
Oc1ccccc1C=NN=C1c2ccccc2-c2ccccc21 | / | -21 | -12 | 2.4 | ? | -7
CC(C)[C@H](NC(=O)OCc1ccccc1)C(=O)OCC(=O)N1CCCCC1 | / | 32 | -7 | -0.9 | -1 | 2
COc1cc(NC(=O)c2cccc([N+](=O)[O-])c2)ccc1NC(=O)c1cc2ccccc2o1 | -4 | ? | -3 | 0.1 | -4 | -21
CCc1nnc(NC(=O)c2cccc(S(=O)(=O)N3CCCC3)c2)s1 | -2 | -15 | -6 | -0.5 | -14 | 14
O=C(CCN1C(=O)/C(=C\c2ccccc2)SC1=S)N1CCCCC1 | -6 | 16 | -5 | -0.7 | 5 | 1
Nn1c(COc2ccc(Cl)cc2)n[nH]c1=S | 2 | 7 | -15 | -1.0 | -5 | -1
Cc1ccc(-c2nnc(NC(=O)c3ccco3)o2)c(C)c1 | 1 | 2 | -18 | -0.2 | 6 | -8
CC1(C)C(N(O)C(=O)Nc2ccc(Cl)cc2)N(c2ccc(Cl)cc2)C(=O)N1CC(=O)NN (configuration not stated) | -1 | 0 | -4 | 0.5 | -1 | 9
Cc1ccc(-c2nc(SCC(=O)N(C)c3c(N)n(Cc4ccccc4)c(=O)[nH]c3=O)n[nH]2)cc1 | -1 | 32 | 7 | 0.1 | 4 | 8
CC(=O)Nc1ccc(N2C(C(C)=O)=NN(c3ccc(Cl)cc3)C2c2sccc2C)cc1 (configuration not stated) | 1 | -3 | 4 | -0.4 | 0 | -9
Cc1ccc(S(=O)(=O)Nc2ccc(Nc3nccn4c(-c5ccc6ccccc6c5)cnc34)cc2)cc1 | / | / | -10 | -0.6 | -3 | -10

The list goes on; the last 7 above are carried over.
Structure | TRPV1 potentiator | TRPML1 blocker | D2 PAM | TRPML1 agonist | Six1-Eya2 blk | CtBP-E1A inh
O=C(CCN1C(=O)/C(=C\c2ccccc2)SC1=S)N1CCCCC1 | -6 | 16 | -5 | -0.7 | 5 | 1
Nn1c(COc2ccc(Cl)cc2)n[nH]c1=S | 2 | 7 | -15 | -1.0 | -5 | -1
Cc1ccc(-c2nnc(NC(=O)c3ccco3)o2)c(C)c1 | 1 | 2 | -18 | -0.2 | 6 | -8
CC1(C)C(N(O)C(=O)Nc2ccc(Cl)cc2)N(c2ccc(Cl)cc2)C(=O)N1CC(=O)NN (configuration not stated) | -1 | 0 | -4 | 0.5 | -1 | 9
Cc1ccc(-c2nc(SCC(=O)N(C)c3c(N)n(Cc4ccccc4)c(=O)[nH]c3=O)n[nH]2)cc1 | -1 | 32 | 7 | 0.1 | 4 | 8
CC(=O)Nc1ccc(N2C(C(C)=O)=NN(c3ccc(Cl)cc3)C2c2sccc2C)cc1 (configuration not stated) | 1 | -3 | 4 | -0.4 | 0 | -9
Cc1ccc(S(=O)(=O)Nc2ccc(Nc3nccn4c(-c5ccc6ccccc6c5)cnc34)cc2)cc1 | / | / | -10 | -0.6 | -3 | -10
O=C(Nc1ccc(N2CCN(c3ccccc3)CC2)c(F)c1)C1CC1 | -3 | -5 | -10 | -0.2 | 2 | /
Nc1nonc1-n1nnc(C(=O)N/N=C/c2cccc(F)c2)c1-c1ccc2c(c1)OCO2 | ? | -17 | 3 | -0.4 | 0 | 1
O=C(OCC1CCCN2CCCCC12)c1ccc2c(c1)OCO2 (configuration not stated) | -3 | 6 | -6 | 0.8 | -2 | -6
CCn1cc(C(=O)C(F)(F)F)c2ccccc21 | 9 | 13 | 4 | -0.2 | 12 | 5
CC[C@@H](C)[C@@H]1CN([C@@H](C)CN2CCC[C@H]2CN2C(N)=NC[C@H]2CC(C)C)C(=N)N1CCc1ccc(Cl)c(Cl)c1 | / | -11 | -73 | 0.2 | 8 | -2
Cc1ccc(-c2ccc(=O)n(CC(=O)NCc3ccc(F)cc3)n2)cc1 | -11 | ? | -2 | 0.6&0.9 | 0 | -2
CC(C)(C)[C@@H]1CCC(=O)N(CC[C@H](Sc2ccc(Br)cc2)c2ccccc2)CC1 | / | -5 | -26 | 0.0&2.1 | 10 | -1
CCCCN(C(=O)c1ccccc1OCc1ccc(F)cc1)c1c(N)n(CCC)c(=O)[nH]c1=O | -2 | -5 | -14 | 0.3 | 3 | 0
CN(CC(=O)NCCc1ccc(F)cc1)Cc1ccccc1 | ? | -3 | -9 | -0.4 | -4 | -11
COc1ccc(NC(=O)CSc2[nH]c(=O)cc(C)c2C#N)cc1OC | 0 | 35 | 0 | 0.9 | -1 | 8
OC(CN1CCCCC1)Cn1c2ccc(Cl)cc2c2cc(Cl)ccc21 (configuration not stated) | -3 | -5 | -12 | -0.5 | 7 | 10
CC(C)C(=O)Nc1cccc(S(=O)(=O)c2cccc(NC(=O)C(C)C)c2)c1 | 22 | 3 | 8 | -1.2 | 5 | -8
COc1cc(C2c3cc4c(cc3C(O)C3COCC23)OCO4)cc(OC)c1OC (configuration not stated) | / | 17 | 1 | 0.4 | -6 | -2
COCCN(CC(=O)Nc1cccc(C)c1C)C(=O)Cc1sc(C)nc1-c1ccc(F)cc1 | 15 | 11 | -18 | 1.3 | 5 | -13
COc1ccccc1CNCC(=O)NCc1ccc(C)cc1 | -9 | -16 | -27 | 0.4 | 1 | -5
CN(NC1OC(=O)c2ccccc21)c1ccc(Cl)cc1[N+](=O)[O-] (configuration not stated) | -5 | -10 | -17 | -0.7 | -19 | -7
CC(Sc1cccc[n+]1[O-])C(=O)Nc1cccc([N+](=O)[O-])c1 (configuration not stated) | 0 | -1 | -16 | -0.5 | -1 | 11
CCOC(=O)c1ccc(NC(=O)CSc2nnc(C)n2-c2ccccc2)cc1 | -19 | 24 | -10 | 0.8 | -3 | 0
CS(=O)(=O)N(CC(=O)N/N=C/c1cccc2c1OCCO2)c1ccccc1Br | 2 | -10 | -15 | -0.6 | -4 | -1
O=[N+]([O-])c1ccc(-n2nncc2-c2ccc(Cl)cc2)cc1 | 7 | 23 | 7 | 0.7 | -15 | -16

Limited to D2 PAM and TRPV1 potentiator (2 entries from above):
SMILES,D2 PAM,TRPV1 potentiator
CC(Sc1cccc[n+]1[O-])C(=O)Nc1cccc([N+](=O)[O-])c1 (configuration not stated),-16,0
CCOC(=O)c1ccc(NC(=O)CSc2nnc(C)n2-c2ccccc2)cc1,-10,-19

From PubChem
